Screening data as filed in PubChem BioAssay.
FPR binding – small-molecule ligands of human FPR – U937-FPR cells, fMLFK-FITC, flow cytometry, primary screen (AID 362) | U937-FPR cells, fMLFK-FITC displacement, flow cytometry; hits give high values; test concentration not given here; most inactive calls were filed without a number and no value below 0 was filed | inhibition, % | 1% of 4,300 active;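 active means inhibition of labelled peptide binding to the formyl peptide receptor of at least 65%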;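 further: plate controls were buffer control wells for no effect and unlabeled fMLFF blocking peptide for full effect; higher means less cell fluorescence so more probe displaced; part of the set was picked by virtual screening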
* = called active by the depositor; i = inactive.

| molecule | FPR binding |
| --- | --- |
| O=C1C2C3C=CC(C3)C2C(=O)N1c1ccc(NC2CCCCC2)c([N+](=O)[O-])c1 (configuration not stated) | i |
| CCOc1cc2c(cc1OCC)C1C(C(=O)N3CCCC(C)C3)c3ccccc3C(=O)N1CC2 (configuration not stated) | i |
| O=C1NC(c2ccc(-c3ccccc3[N+](=O)[O-])o2)C(C(=O)c2ccc(F)cc2)C(O)(C(F)(F)F)N1 (configuration not stated) | i |
| CCCS(=O)(=O)c1c(S(=O)(=O)CCC)c2cc(CC)ccn2c1C(=O)c1ccc(OC)cc1 | i |
| CCCCn1c(SCC(=O)NCc2ccco2)nc2ccc(N3CCOCC3)cc2c1=O | 2.4 |
| O=C(NC1(C(F)(F)F)C(=O)Nc2c1c(=O)[nH]c(=O)n2-c1ccc(F)cc1)c1cccnc1 (configuration not stated) | 4.5 |
| O=C(C1CCCN(S(=O)(=O)c2cccc3nsnc23)C1)N1CCCCC1 (configuration not stated) | i |
| CCOC(=O)C1C(=O)CC(C)(O)C(C(=O)OCC)C1c1ccc2c(c1)OCO2 (configuration not stated) | 2.5 |
| O=C(NCCc1ccc(Cl)cc1)C1CCC(CNS(=O)(=O)c2ccccc2)CC1 (configuration not stated) | 7.8 |
| CCCS(=O)(=O)c1c(S(=O)(=O)CCC)c2cc(C(C)(C)C)ccn2c1C(=O)c1ccccc1 | i |
| COc1ccc(C2C(C(=O)OC3CCCCC3)=C(C)Nc3ncnn32)c(OC)c1OC (configuration not stated) | 7.6 |
| CCc1cc2c(=O)c(-c3nc4ccccc4n3C)c(C(C)C)oc2cc1O | 17.8 |
| O=C(NCc1ccccc1F)C12CC3CC(C1)CC(n1cncn1)(C3)C2 | i |
| COc1ccc(OC)c(NC(=O)Cn2cnc3sc(C)c(S(=O)(=O)N4CCC(C)CC4)c3c2=O)c1 | i |
| CCOc1ccc(NC(=O)C(NS(=O)(=O)c2ccc3c(c2)CCCN3C(C)=O)C(C)C)cc1 (configuration not stated) | i |
| Cc1ccc(S(=O)(=O)N(CCC#N)C2CCCCC2)cc1 | i |
| COc1ccc2cc3cc(C(=O)N4CCCCCC4)sc3nc2c1 | 5.0 |
| CC(=O)N1CCc2cc(S(=O)(=O)NC(C(=O)Nc3nc(C)cs3)C(C)C)ccc21 (configuration not stated) | i |
| Cc1ccc(S(=O)(=O)NCC2CCC(C(=O)NCCCN(C)c3ccccc3)CC2)cc1 (configuration not stated) | i |
| COc1ccc(C2C3=C(CC(C)(C)CC3=O)OC3=C2C(=O)CC(C)(C)C3)cc1CN1C(=O)c2ccccc2C1=O | 21.1 |
| CCOC(=O)C(CC)Oc1ccc2c(=O)c(Oc3cccc(C)c3)c(C(F)(F)F)oc2c1 (configuration not stated) | i |
| COC(=O)C1C(=O)C2=C(CC1C)NC(C)=C(C(=O)OC(C)C)C2c1cc(Cl)c(O)c(OC)c1 (configuration not stated) | 9.8 |
| N#Cc1c2c(c(N3CCOCC3)n3c1nc1ccccc13)CCCC2 | 2.1 |
| CCOc1ccccc1C1C2=C(CC(C)(C)CC2=O)Nc2nc(C(F)(F)F)nn21 (configuration not stated) | 14.1 |
| CC(C)C(NC(=O)c1ccc(Br)cc1)C(=O)NC1=NCCS1 (configuration not stated) | 27.0 |
| COc1cc2c(C(=O)N3CCCCCC3)cn(CC(C)C)c(=O)c2cc1OC | i |
| CCOC(=O)c1cnc2ccc(C(=O)OC)cc2c1N1CC2(C)CC1CC(C)(C)C2 (configuration not stated) | i |
| COc1cc(C2C3=C(CC(C)(C)CC3=O)Nc3nc4ccccc4n32)cc(OC)c1OC (configuration not stated) | i |
| CCCOC(=O)C1=C(C)NC2=C(C(=O)C(C(=O)OC)C(C)C2)C1c1ccccc1F (configuration not stated) | 7.1 |
| CCOC(=O)C1=C(C)NC2=C(C(=O)C(C(=O)OC)C(C)C2)C1c1cccc(O)c1 (configuration not stated) | 9.0 |
| CCOC(=O)C(C)Oc1ccc2c(=O)c(Oc3cccc(C)c3)c(C(F)(F)F)oc2c1 (configuration not stated) | i |
| COC(=O)C1=C(C(=O)OC)SC(=C2C(=S)C(C)(C)N(C(=O)CCC3CCCCC3)c3ccc(OC)cc32)S1 | i |
| CCCCCc1c(C)c(C#N)c2nc3ccccc3n2c1N1CCOCC1 | i |
| CCOc1ccc(C2C(C(=O)OCCOC(C)C)=C(C)NC3=C2C(=O)C(C(=O)OC)C(C)C3)cc1 (configuration not stated) | 39.6 |
| CC(=O)N1CCCc2cc(S(=O)(=O)NC(C(=O)NCc3ccc(F)cc3)C(C)C)ccc21 (configuration not stated) | 7.2 |
| COc1ccc2c(=O)c(-c3ccccc3Cl)c(C(F)(F)F)oc2c1 | i |
| CCOC(=O)C1C(=O)C=C(c2ccc(F)cc2)CC1c1ccc(OC)c(OC)c1 (configuration not stated) | i |
| CCOC(=O)c1cc2c(=O)n3ccccc3nc2n(CC(C)C)c1=NC(=O)c1cccs1 | i |
| O=C(Oc1cccc(N2C(=O)C3C4CCC(C4)C3C2=O)c1)c1ccccc1Cl (configuration not stated) | i |
| COc1ccc(CNC(=O)CCCCCn2c(SCC(N)=O)nc3cc4c(cc3c2=O)OCO4)cc1 | 0.1 |

Six entries from above, with values ahead of the structure:
FPR binding	structure
39.6	CCOc1ccc(C2C(C(=O)OCCOC(C)C)=C(C)NC3=C2C(=O)C(C(=O)OC)C(C)C3)cc1 (configuration not stated)
7.2	CC(=O)N1CCCc2cc(S(=O)(=O)NC(C(=O)NCc3ccc(F)cc3)C(C)C)ccc21 (configuration not stated)
i	CCOC(=O)c1cc2c(=O)n3ccccc3nc2n(CC(C)C)c1=NC(=O)c1cccs1
i	CCOC(=O)C(C)Oc1ccc2c(=O)c(Oc3cccc(C)c3)c(C(F)(F)F)oc2c1 (configuration not stated)
i	COc1ccc2c(=O)c(-c3ccccc3Cl)c(C(F)(F)F)oc2c1
i	CCCCCc1c(C)c(C#N)c2nc3ccccc3n2c1N1CCOCC1

Continued:
| molecule | FPR binding |
| --- | --- |
| CCOC(=O)CSc1nc2ccccc2c(=O)n1CC1CCCCC1 | i |
| O=C(O)C1CCC(Cn2c(SCc3ccc([N+](=O)[O-])cc3)nc3ccsc3c2=O)CC1 (configuration not stated) | 6.7 |
| CCOC(=O)c1c(NC(=O)C2CCCCC2C(=O)O)sc2c1CCC(C(C)(C)C)C2 (configuration not stated) | 71.7* |
| CCCCN(CC)S(=O)(=O)c1ccc2c(c1)c(=O)n(C)c(=O)n2C | 2.0 |
| CN1CCN(C(=O)c2cn(C3CCCC3)c(=O)c3c2c2ccccc2n3C)CC1 | i |
| O=C(CSc1c2c(nc3ccccc13)CCCC2)Nc1cccc(C(F)(F)F)c1 | i |
| CCCCCn1c(SCC(=O)NCCc2ccccc2)nc2cc(C(=O)NCc3ccco3)ccc2c1=O | 2.1 |
| CC1CCN(C(=O)c2ccc(SCc3ccccc3F)c([N+](=O)[O-])c2)CC1 | i |
| CCc1ccc(CNC(=O)c2cn(CC(C)C)c(=O)c3c2c2ccccc2n3C)cc1 | i |
| CCOc1ccc2c(c1)C(C)=CC(C)(C)N2C(=O)CN1C(=O)c2ccccc2C1=O | i |
| O=C(O)CSC(NC(=O)c1cccnc1)(C(F)(F)F)C(F)(F)F | 1.6 |
| COC(=O)C1C(=O)C2=C(CC1C)NC(C)=C(C(=O)OCc1ccc(OC)cc1)C2c1ccc(C)o1 (configuration not stated) | 20.1 |
| C=CCc1cc(C(=O)N2CCCCC2)ccc1O | 22.1 |
| O=C(NC1(C(F)(F)F)C(=O)Nc2c1c(=O)[nH]c(=O)n2-c1ccccc1F)c1cccs1 (configuration not stated) | 1.3 |
| O=C(C1CCC(CNS(=O)(=O)c2ccc(Br)s2)CC1)N1CCC2(CC1)OCCO2 (configuration not stated) | i |
| COc1ccccc1-c1c(C(F)(F)F)oc2c(CN3CCOCC3)c(O)ccc2c1=O | 22.0 |
| O=C(CCCN1C(=O)c2cccc3cccc(c23)C1=O)N1CCC(CN2C(=O)c3cccc4cccc(c34)C2=O)CC1 | i |
| O=C(CSc1nc2ccccc2c(=O)n1CC1CCC(C(=O)NCc2ccccc2Cl)CC1)NC1CCCC1 (configuration not stated) | 4.5 |
| O=c1c2sccc2n(Cc2cc(=O)n3cc(Cl)ccc3n2)c(=O)n1-c1ccccc1 | i |
| CCOc1ccccc1NC(=O)C(CC(C)C)NS(=O)(=O)c1ccc2c(c1)CCN2C(C)=O (configuration not stated) | i |

Continuation.
Structure | FPR binding
O=C(NCc1ccccn1)C1CCC(CNS(=O)(=O)c2ccc(F)cc2)CC1 (configuration not stated) | i
Cc1cc(C)c(S(=O)(=O)NCC2CCC(C(=O)NCCCN3CCC(Cc4ccccc4)CC3)CC2)c(C)c1 (configuration not stated) | 12.4
CCC(=O)N1CCc2cc(S(=O)(=O)NC(CC(C)C)C(=O)Nc3cc(OC)ccc3OC)ccc21 (configuration not stated) | i
CCOC(=O)C1CCN(C(=O)CC(NS(=O)(=O)c2ccc(OC)cc2)C(C)C)CC1 (configuration not stated) | i
COc1ccc(C2(CNC(=O)c3ccccc3Cl)CCOCC2)cc1 | 1.3
CCOC(=O)c1cc2c(=O)n3ccccc3nc2n(C2CCCCC2)c1=NC(=O)c1ccc(OC)cc1OC | 10.4
CCn1cc(Br)c(C(=O)OCC23COC(c4ccc(OC)cc4)C(C(C)=CC2C)C3C)n1 (configuration not stated) | 8.0
CCOC(=O)c1cnc2ccc(OC)cc2c1NC1CCCCC1 | 99.3*
Cc1c(OC(=O)c2ccccc2)ccc2c3c(c(=O)oc12)CCC3 | 25.1
COc1cc(C2C3=C(CC(C)(C)CC3=O)OC3=C2C(=O)CC(C)(C)C3)ccc1OC(=O)c1ccccc1 | 15.9
COC(=O)C1C(=O)C2=C(CC1C)NC(C)=C(C(=O)OC(C)C)C2c1ccc(C)s1 (configuration not stated) | 1.2
Cc1cc(C)c(S(=O)(=O)NCC2CCC(C(=O)NCCc3ccccc3)CC2)c(C)c1 (configuration not stated) | i
CC1CCC2(CC1)C(C#N)=C1SC3CCCCC3(O)N1C(=O)C2C#N (configuration not stated) | i
CCOC(=O)CSc1nc2ccccc2c(=O)n1CC1CCC(C(=O)NCCc2ccccc2)CC1 (configuration not stated) | i
CC(C)Cn1cc(C(=O)NCc2ccc(F)cc2)c2c3ccccc3n(C)c2c1=O | i
Cc1ccc(CNC(=O)C2CCC(CNS(=O)(=O)c3ccc(C)cc3)CC2)cc1 (configuration not stated) | 2.5
CN1CCN(C2=CC(=O)OC23CCCCC3)CC1 | i
O=C1C2C3C=CC(C3)C2C(=O)N1c1ccc(NCc2ccccc2Cl)c([N+](=O)[O-])c1 (configuration not stated) | i
CCOC(=O)c1c(NC(=O)C2C3CCC(C3=C(C)C)C2C(=O)O)sc2c1CCCCCCC2 (configuration not stated) | 95.1*
CCc1c(C)sc(NC(NC(=O)c2ccccc2)(C(=O)OC)C(F)(F)F)c1C#N (configuration not stated) | i
Cc1ccc(S(=O)(=O)NCCCCCC(=O)Oc2ccc3c4c(c(=O)oc3c2)CCCC4)cc1 | i
CC(Nc1nc(OC(C(F)(F)F)C(F)(F)F)nc(OC(C(F)(F)F)C(F)(F)F)n1)C(=O)O (configuration not stated) | i
CCCOC(=O)C1=C(C)NC2=C(C(=O)C(C(=O)OC)C(C)C2)C1c1ccccc1C (configuration not stated) | 10.1
COc1ccc2nc(NC(=O)C3CCC(CNS(=O)(=O)c4ccc(Br)s4)CC3)sc2c1 (configuration not stated) | i
Cc1ccc(S(=O)(=O)NCC2CCC(C(=O)NC(C)c3ccc4c(c3)OCCO4)CC2)cc1 (configuration not stated) | i
COC(=O)c1cc(C(=O)Nc2ccccc2C(F)(F)F)cc([N+](=O)[O-])c1 | i
CCCCCCCOC(=O)C1=C(C)NC(=O)NC1c1cc(Br)c(O)c(OC)c1 (configuration not stated) | 24.5
COC(=O)C1C(=O)C2=C(CC1C)NC(C)=C(C(=O)OC1CCCCC1)C2c1ccccc1C (configuration not stated) | 0.2
CCOC(=O)N1CCC(NC(=O)C2CCC(CNS(=O)(=O)c3ccc(OC)cc3)CC2)CC1 (configuration not stated) | i
CCOC(=O)c1cc2c(=O)n3ccccc3nc2n(CC(C)C)c1=NC(=O)c1ccncc1 | i
CCOC(=O)c1ccc(NC(=O)C2(c3ccc(OC)c(OC)c3)CCCC2)cc1 | 18.3
CCSCCOC(=O)C1=C(C)NC2=C(C(=O)C(C(=O)OC)C(C)C2)C1c1cc(OC)c(OC)c(OC)c1 (configuration not stated) | 2.7
CCCCCCOC(=O)C1=C(C)NC(=O)NC1c1ccc(O)c(OCC)c1 (configuration not stated) | 18.3
Cn1c(=O)c2c(nc(NCCO)n2Cc2cccc(C(F)(F)F)c2)n(C)c1=O | i
Cc1ccc(CNC(=O)CCCCCn2c(SCC(=O)NCCC3=CCCCC3)nc3ccsc3c2=O)cc1 | i
COc1ccc(OC)c(-c2cc(C(F)(F)F)c3c(n2)sc2c(O)cc(=O)[nH]c23)c1 | i
CC(=O)Oc1ccc(C2C(C(=O)OC3CCCC3)=C(C)NC3=C2C(=O)CC(c2cccs2)C3)cc1 (configuration not stated) | i
COc1ccccc1-c1c(C(F)(F)F)oc2cc(OC(C)C(=O)OCc3ccccc3)ccc2c1=O (configuration not stated) | i
CC1=C(C(=O)OCC2CCCCC2)C(c2cccc([N+](=O)[O-])c2)NC(=O)N1 (configuration not stated) | 15.3
CCCCCCCC1C(C#N)=C(N)OC2=C1C(=O)CCC2 (configuration not stated) | i
O=C1C2C3C=CC(C2C(=O)N1c1ccc(O)cc1)C1C2C(=O)N(c4ccc(O)cc4)C(=O)C2C31 (configuration not stated) | 4.6
O=C(C(Cc1ccccc1)NS(=O)(=O)c1ccc(Br)s1)N1CC2CC(C1)c1cccc(=O)n1C2 (configuration not stated) | i
CCC(C)OC(=O)C1=C(C)NC2=C(C(=O)C(C(=O)OC)C(C)C2)C1c1ccc(O)cc1 (configuration not stated) | 13.1

Structures listed above that bear a hit mark in FPR binding.
Structure | FPR binding
CCOC(=O)c1c(NC(=O)C2CCCCC2C(=O)O)sc2c1CCC(C(C)(C)C)C2 (configuration not stated) | 71.7*
CCOC(=O)c1cnc2ccc(OC)cc2c1NC1CCCCC1 | 99.3*
CCOC(=O)c1c(NC(=O)C2C3CCC(C3=C(C)C)C2C(=O)O)sc2c1CCCCCCC2 (configuration not stated) | 95.1*

An excerpt (hit frequency here may not be typical).
